High-throughput results from PubChem BioAssay.
Vif TR-FRET: inhibitors of Vif binding to APOBEC3G peptide, primary screen, biochemical, TR-FRET, GST-Vif 1-94, biotin-A3G peptide, dose response retest (AID 1117319); Virion infectivity factor (Human immunodeficiency virus type 1 group M subtype B (isolate …; TR-FRET GST-Vif / biotin-A3G peptide binding; higher % means a stronger effect; test concentration not given here; strong numbers were not always called active; one-dose inhibition, %; IC50 in µM for titrated hits; 260,000 tested, 0.57% active;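 active means above the screen mean plus three standard deviations and confirmed in dose response; inconclusive means results disagree or hit not tested in dose response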;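 further: Vif residues 1-94 fused to GST binding biotinylated APOBEC3G peptide 110-148; 0% = full assay without inhibitor and 100% = GST in place of GST-Vif; retest series ran down from 100 µM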
FGF22 binding: binders of human FGF22 protein, primary screen, FGF22 synaptogenesis inhibitor project, biophysical, thermal shift, single point; Fibroblast growth factor 22 (Homo sapiens), Q9HCT0; recombinant FGF22 thermal shift, SYPRO orange fluorescence; percent of sucrose octasulfate shift, DMSO zero; calls only at 9.99 µM; 340,000 tested, 1.5% active; AID 651658, 2012;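 active means melting point raised past a set limit in the mean and every replicate; inconclusive means no clear call; three in four hits are not shown here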
Target sequence (Q9HCT0 whole entry, looked up): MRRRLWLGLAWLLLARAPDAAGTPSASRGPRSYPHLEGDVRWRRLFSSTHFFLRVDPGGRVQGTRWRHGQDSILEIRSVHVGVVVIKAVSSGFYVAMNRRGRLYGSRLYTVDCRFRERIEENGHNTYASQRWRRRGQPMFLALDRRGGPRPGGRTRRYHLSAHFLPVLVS
AF4-AF9 inh: inhibitors of AF4 peptide binding to AF9, primary screen, biochemical, AlphaScreen, biotin-AF4 peptide, FLAG-AF9, single point | 350,000 tested, 0.47% active | inhibition, % at 10 µM | Protein AF-9 (Homo sapiens), P42568;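 active means every replicate reaching a set inhibition limit, whatever the replicate mean, cut at about 25% in these data; inconclusive means mean inhibition reaches that limit but some replicates miss it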;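 further: 0% = plate neutral control median and 100% = total signal loss; the record names both 10 and 1 µM as test concentration; the first replicate is given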
Target sequence (P42568 whole entry, looked up): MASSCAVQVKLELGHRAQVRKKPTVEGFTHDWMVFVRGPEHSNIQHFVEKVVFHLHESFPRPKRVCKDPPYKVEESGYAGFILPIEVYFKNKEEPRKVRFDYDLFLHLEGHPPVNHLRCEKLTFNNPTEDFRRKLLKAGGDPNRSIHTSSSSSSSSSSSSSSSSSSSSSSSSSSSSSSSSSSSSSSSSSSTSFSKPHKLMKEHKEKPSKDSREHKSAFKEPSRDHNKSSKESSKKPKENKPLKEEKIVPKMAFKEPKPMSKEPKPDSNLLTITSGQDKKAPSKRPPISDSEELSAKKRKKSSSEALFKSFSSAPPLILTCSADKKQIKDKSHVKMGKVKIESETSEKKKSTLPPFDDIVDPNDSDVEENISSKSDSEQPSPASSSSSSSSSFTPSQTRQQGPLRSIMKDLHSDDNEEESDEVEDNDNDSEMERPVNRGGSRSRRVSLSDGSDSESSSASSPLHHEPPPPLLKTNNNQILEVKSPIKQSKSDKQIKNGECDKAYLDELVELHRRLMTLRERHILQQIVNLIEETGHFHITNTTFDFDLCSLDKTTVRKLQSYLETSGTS
ALR inh: inhibitors of human ALR sulfhydryl oxidase, primary screen, biochemical, H2O2 detection, HRP-luminol luminescence, single point | 290,000 tested, 3.8% active | purified ALR, DTT oxidation | AID 485317, 2010 | FAD-linked sulfhydryl oxidase ALR (Homo sapiens), P55789 | inhibition, % (test concentration not listed);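 active means mean and each replicate at 75% or more; inconclusive means only one of the two met; inactive means neither met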;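 further: stock transfer was 7.5 nL into about 7.5 µL; 0% = neutral wells and 100% = wells with inactivated enzyme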
Target sequence (P55789 whole entry, looked up): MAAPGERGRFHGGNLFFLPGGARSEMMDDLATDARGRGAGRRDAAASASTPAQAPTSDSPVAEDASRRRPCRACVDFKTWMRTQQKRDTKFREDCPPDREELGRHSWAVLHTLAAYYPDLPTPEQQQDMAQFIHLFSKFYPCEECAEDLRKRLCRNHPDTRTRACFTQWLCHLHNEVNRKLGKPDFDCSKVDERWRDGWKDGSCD
Ecoli rRNA inh: reduced GFP signal of wild-type E. coli, primary screen, bacterial rRNA inhibitor project, GFP/RFP fluorescence, OD600, single point | E. coli WT GFP vs humanized-ribosome RFP mutants, 24 h; active compounds read low; DMSO median 0, no signal -100 | GFP signal change (wild-type ribosome), % (concentration not given with the values) | 350,000 tested, 1.6% active;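 active means significant combined selectivity score with lowered wild-type GFP, culture density cut under 30%, mutant RFP and density less affected; inactive means any of these conditions unmet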; further: one replicate is shown; some compounds called inactive have numbers as strong as hits
HNF4A DNA FP: change in binding of human HNF4A to DNA, primary screen, biochemical, fluorescence polarization, FITC-DNA; 1 h; activity change, % at 10 µM; 360,000 tested, 0.3% active; AID 1224865, 2016; in the data active means activity change above about 30%, passing the limit was not always enough;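 further: controls were the assay level and a saturating level of protein; the project sought stronger binding though the title names inhibitors; some compounds called inactive have numbers as strong as hits; positive values seem to mean higher polarization but the record does not say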
E coli growth: E. coli growth inhibition, primary screen, OD600; Escherichia coli growth, 23 h; active compounds read low; OD600 absorbance (no concentration beside the values); 330,000 tested, 0.21% active;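 active means OD600 absorbance below the run mean of sample wells minus 3.6 SD, in any replicate, cut at about 0.56 in these data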;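 further: stock transfer was 300 nL into about 60 µL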
Ecoli rRNA inh OD600: second read-out of Ecoli rRNA inh, no call of its own (marks repeat the call); OD600 change, %; measured here: OD600 growth;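 optical density of the mix in the first replicate; 0 = DMSO median and -100 = no signal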
Ecoli rRNA inh RFP: second read-out of Ecoli rRNA inh, no call of its own (marks repeat the call); RFP signal change, %; measured here: RFP humanized mutant strains;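 first replicate; 0 = DMSO median and -100 = no signal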
* hit, by the source's call; i = inactive; ? = inconclusive; · = not tested or not shown; & = joins results of further samples. This is a subset. The share of hits here may be higher or lower than overall.

Molecule	AF4-AF9 inh	HNF4A DNA FP	ALR inh	Vif TR-FRET	Ecoli rRNA inh	FGF22 binding	E coli growth	Ecoli rRNA inh OD600	Ecoli rRNA inh RFP
CC(C)(C)c1ccc(C(=O)NC(=S)N2CCCC2)cc1	1.3	0.5	-20	-2%	4	i	0.65	-4	2.7
O=C(Nc1cc(C(F)(F)F)ccc1F)C1CCCC1	·	1.8	-20	5%	7	·	0.65	7	0.8
O=C(c1ccccc1)N1CCN(c2ccc([N+](=O)[O-])c(NCc3ccco3)c2)CC1	·	2.6	·	-1%	·	·	0.75	·	·
Cc1nc2nc(SCc3ccccc3)nn2c(C)c1C	-2.0	-1.0	-2	·	2	i	·	2	0.4
O=C(C[C@@H]1C=C[C@@H](NC(=O)Nc2ccc(C(F)(F)F)cc2)[C@@H](CO)O1)NCCN1CCCC1	0.8	·	·	·	-2	i	·	-4	-1.4
COc1ccc2c(OC)cc(-c3ccccc3)nc2c1	·	1.0	1	-6%	·	·	0.71	·	·
CC(C)n1nnnc1SCC(=O)NC1CCCC1	1.2	-2.3	-3	·	-2	i	0.71	4	-0.6
CCOC(=O)c1sc2cccc(Cl)c2c1N	·	0.9	3	-4%	·	·	0.64	·	·
Cc1cc(Br)ccc1OCCn1ccnc1	3.1	-3.2	-38	8%	-30	i	0.63	-63	-16
CCN(CC)C(=O)[C@H]1CC(CC(=O)NCCc2ccccn2)C(=O)N2CCc3c([nH]c4ccc(OC)cc34)[C@]12C (some centres undefined)	0.1	1.0	·	-3%	-9	i	0.72	-2	-3.8
C[C@@H]1CCCCO[C@H](CN(C)C(=O)c2ccncc2)[C@H](C)CN([C@@H](C)CO)C(=O)c2cc(NS(=O)(=O)c3ccc(Cl)cc3)ccc2O1	-3.9	·	·	·	3	i	·	8	-0.6
COc1cc(OC)c(C(=O)Nc2ccc(S(=O)(=O)N3CCCCC3)cc2)cc1OC	0.3	-1.9	-3	-6%	-6	i	0.67	-18	7.1
CS(=O)(=O)Nc1ccc2c(c1)[C@H]1C[C@@H](CC(=O)NCC(F)(F)F)O[C@@H](CO)[C@H]1O2	-11	·	·	·	6	i	·	13	-4.3
CN(C(=O)CSc1nc2ccccc2o1)C1CCCCC1	-9.5	-1.2	·	-5%	-1	i	0.69	-4	-0.6
Cc1ccc(NC(=O)N(C2=NCC(C)S2)c2ccccc2)cc1 (centres undefined)	·	0.6	-15	-8%	·	·	0.7	·	·

Next section:
Molecule	AF4-AF9 inh	HNF4A DNA FP	ALR inh	Vif TR-FRET	Ecoli rRNA inh	FGF22 binding	E coli growth	Ecoli rRNA inh OD600	Ecoli rRNA inh RFP
COc1ccccc1CCc1nnc(CCC(=O)N(C)Cc2ccncc2C)o1	0.0	2.1	-2	-9%	25	i	0.7	-11	-1.0
Cc1ccc(CSCCNS(=O)(=O)c2ccc(C)cc2)cc1	·	1.1	-15	-3%	·	·	0.69	·	·
C/C(=N/NC(=O)CNC(=O)c1cccnc1)c1ccc([N+](=O)[O-])cc1	-1.2	-2.0	-3	?	12	i	·	10	1.9
Cc1noc(C)c1S(=O)(=O)N(C)C[C@H]1Oc2c(NC(=O)C3CCCCC3)cccc2C(=O)N([C@H](C)CO)C[C@H]1C	-0.8	·	·	·	-9	i	·	-4	0.4
CCc1csc(N2[C@H](C#N)[C@H](c3ccc(C4=CCCC4)cc3)[C@H]2CO)n1	-1.8	·	·	·	-3	i	·	-7	-0.8
O=C(COc1ccccc1[N+](=O)[O-])N/N=C/c1ccc(OC(=O)c2ccco2)cc1	0.8	-0.8	35	1%	12	i	·	6	11
COc1ccccc1CNC(=O)COc1cccnc1[N+](=O)[O-]	-14	-1.8	-11	·	0	i	0.71	3	-0.7
CCOc1ccc(C(=O)NCC(C)C)cc1	·	-0.2	-6	1%	·	·	0.64	·	·
COc1ccc(Br)cc1/C=N/NC(=O)c1nc(-c2ccccc2)n2c1CCCCC2	·	1.5	-10	-7%	·	·	·	·	·
O=C(CN1CCN(Cc2ccccc2)CC1)NCCNc1ccc([N+](=O)[O-])cn1	0.9	0.6	11	·	12	i	0.7	16	4.6
CN(C(=O)Cn1nc(C(=O)O)c2ccccc2c1=O)C1(C#N)CCCCC1	-1.5	-3.5	9	-9%	1	i	0.64	4	-1.0
O=C(Nc1ccc2c(c1)OCO2)c1n[nH]c(=O)c2ccccc12	1.5	-4.4	-18	28%	5	i	0.73	-10	-6.2
COc1ccc(NC(=O)C2CCCN(c3nn4c(=O)cc(C)nc4s3)C2)cc1 (centres undefined)	-3.0	1.8	-9	·	-3	i	0.71	-2	2.2
COc1cc(C(=O)NCCc2ncccc2C)ccc1OC1CCN(C(C)=O)CC1	-2.5	1.6	-11	-4%	8	i	0.7	9	3.4
C[C@@H]1CN([C@@H](C)CO)S(=O)(=O)c2ccc(C3=CCCC3)cc2O[C@H]1CN(C)C(=O)c1ccccn1	-1.5	·	·	·	3	i	·	4	-1.0

The list goes on.
Molecule	AF4-AF9 inh	HNF4A DNA FP	ALR inh	Vif TR-FRET	Ecoli rRNA inh	FGF22 binding	E coli growth	Ecoli rRNA inh OD600	Ecoli rRNA inh RFP
O=C1NC[C@H](CCCCN2CCN(Cc3ccccc3)C(=O)C2=O)N(CCC2CCCCC2)C1=O	1.5	1.9	·	·	10	i	·	7	4.2
O=C1NC[C@@H](CCCCN2C[C@H](Cc3ccc(O)cc3)N(CCc3ccccc3)C(=O)C2=O)N(Cc2ccccc2)C1=O	17	-1.9	·	·	-5	i	·	-12	4.8
C[C@H]1CN([C@@H](C)CO)C(=O)c2cc(NC(=O)C3CC3)ccc2O[C@H]1CN(C)C	-0.7	·	·	·	4	i	·	3	0.0
C[C@@H]1CN([C@@H](C)CO)C(=O)c2cccc(N(C)C)c2O[C@H]1CN(C)S(C)(=O)=O	-1.3	·	·	·	-2	i	·	10	3.1
COc1cc(/C=N/NC(=O)Cc2c[nH]c3ccccc23)cc(OC)c1OC	·	6.5	-5	0%	·	·	·	·	·
CCOc1ccc(-c2noc(CCC(N)=O)n2)cc1OCC	·	2.2	-1	6%	·	·	0.72	·	·
CC(C)NC(=O)N(C)C[C@H]1Oc2ccc(NC(=O)Nc3ccc(C(F)(F)F)cc3)cc2C(=O)N([C@H](C)CO)C[C@@H]1C	-1.7&-0.8	-0.6	-5	·	-1&0	i	·	-4&0	0.8&7.0
Cc1ccc(S(=O)(=O)NCC(=O)N/N=C/c2ccccc2O)cc1	-1.0	-4.8	11	-8%	-31*	i	·	-22*	-2.7*
Cc1cc(C(=O)NCC2CCCO2)n(-c2ccccc2)n1 (centres undefined)	-1.4	1.4	-6	-2%	8	i	0.72	9	1.0
COc1ccc(NC(=O)CSc2nnc(-c3ccccc3F)n2C2CC2)cc1S(N)(=O)=O	0.0	0.9	58	-4%	-1	i	0.71	-4	3.2
Cc1ccc(-c2cc3ccccc3nc2N2CCCC2)cc1	·	15	-19	0%	·	·	0.75	·	·
Cc1ccc(N2CC(C(=O)Nc3ccc(S(=O)(=O)Nc4nccs4)cc3)CC2=O)cc1 (centres undefined)	-0.6	-2.7	46	-7%	12	·	0.65	8	1.1
CC(C(=O)OCC(=O)Nc1ccc2c(c1)OCO2)N1C(=O)c2ccccc2C1=O (centres undefined)	·	3.8	-2	6%	·	·	0.81	·	·
CN(NS(=O)(=O)c1ccc(F)cc1)c1ncc(C(F)(F)F)cc1Cl	-2.7	-5.3	-35	-1%	-29	·	0.69	-36	0.7
CC(Oc1cccnc1[N+](=O)[O-])C(=O)Nc1ccc(F)cc1 (centres undefined)	-6.6	2.7	-6	·	·	i	0.66	·	·

Record cards (already shown). Order of values: AF4-AF9 inh, HNF4A DNA FP, ALR inh, Vif TR-FRET, Ecoli rRNA inh, FGF22 binding, E coli growth, Ecoli rRNA inh OD600, Ecoli rRNA inh RFP
O=C1NC[C@@H](CCCCN2C[C@H](Cc3ccc(O)cc3)N(CCc3ccccc3)C(=O)C2=O)N(Cc2ccccc2)C1=O in the list: 17, -1.9, ·, ·, -5, i, ·, -12, 4.8
COc1cc(/C=N/NC(=O)Cc2c[nH]c3ccccc23)cc(OC)c1OC in the list: ·, 6.5, -5, 0%, ·, ·, ·, ·, ·
Cc1ccc(N2CC(C(=O)Nc3ccc(S(=O)(=O)Nc4nccs4)cc3)CC2=O)cc1 (centres undefined) in the list: -0.6, -2.7, 46, -7%, 12, ·, 0.65, 8, 1.1

Additional results follow.
Molecule	AF4-AF9 inh	HNF4A DNA FP	ALR inh	Vif TR-FRET	Ecoli rRNA inh	FGF22 binding	E coli growth	Ecoli rRNA inh OD600	Ecoli rRNA inh RFP
CCOc1cc(C(=O)Nc2ccc3c4c(cccc24)C(=O)N3CC)cc(OCC)c1OCC	·	16	-11	-8%	1	·	0.72	12	-1.6
O=C(CN1CCCC1)Nc1c2c(cc3c1CCC3)CCC2	3.8	0.0	-15	-7%	0	i	·	3	-1.7
O=C(CSc1cccc2cccnc12)N1CCCC1	·	-2.6	-6	-3%	·	·	0.69	·	·
C[C@@H]1CN([C@@H](C)CO)C(=O)c2cc(C3=CCCCC3)cnc2O[C@H]1CN(C)C(=O)NC1CCCC1	-2.0	·	·	·	1	i	·	12	-3.5
COc1ccc(NC(=O)C/C(C)=N/NC(=O)C2CCCCC2)c([N+](=O)[O-])c1	-40	4.8	-10	·	3	i	·	4	-1.5
COc1ccccc1Oc1coc2cc(OCC(N)=O)ccc2c1=O	0.7	-0.6	-1	-1%	7	i	0.68	10	15
CCOc1ccc2nc(N3CCCC(C(=O)NCCCN4CC(C)CC(C)C4)C3)sc2c1 (centres undefined)	6.2	-0.9	7	·	3	i	0.67	15	6.4
CN(C)c1cccc(NC(=O)NC2(C)CCS(=O)(=O)C2)c1 (centres undefined)	-4.5	-0.6	·	-6%	14	i	0.7	18	4.8
COc1cc2c(cc1OC)CN(CC(=O)Nc1cccc(C(F)(F)F)c1)CC2	-2.0	1.1	-3	6%	8	i	0.67	4	1.3
CCCNC(=O)N1[C@@H](CO)[C@@H](c2ccccc2)[C@@H]1CNC(C)=O	-2.5	·	·	·	-5	i	·	-3	-4.3
C[C@H]1CN([C@@H](C)CO)C(=O)c2cc(NC(=O)Cc3ccccc3)ccc2O[C@H]1CN(C)CC1CC1	-1.8	·	·	·	1	i	·	-4	-1.7
CNC(=S)Nc1ccc(OCc2ccccc2)cc1	-0.2	0.1	·	-2%	0	i	0.66	0	-1.5
O=C(Cn1ncc2c([nH]c3ccccc32)c1=O)N1CCCCC1	0.8	2.5	1	-5%	-6	i	0.69	-1	2.7
O=C(N/N=C1/CC2CCC1C2)c1cc2ccccc2cc1O (centres undefined)	1.4	0.9	4	·	14	i	·	19	0.6
CCCCn1c2ccccc2c2nnc(SCCN3CCCCC3)nc21	3.9	-3.7	·	-8%	-2	i	0.69	6	-0.2
O=C(O)c1cccc(NC(=S)NC(NC(=O)c2ccco2)C(Cl)(Cl)Cl)c1 (centres undefined)	-8.7	-3.4	7	·	-9	i	0.69	-9	-11
COc1ccc(S(=O)(=O)N(C)C[C@@H]2Oc3ccc(NC(=O)Cc4ccccc4)cc3C(=O)N([C@H](C)CO)C[C@H]2C)cc1	-1.0	·	·	·	-4	i	·	-11	0.7
